High-throughput results from PubChem.
Mtb growth: M. tuberculosis H37Rv growth inhibitors, H37Rv strain (AID 1626); 220,000 tested, 0.95% active; inhibition, % at 10 µM; hits with a dose series show IC50 in µM; M. tuberculosis H37Rv growth inhibition; higher % means a stronger effect;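 active = confirmed in a dose series; inconclusive = inhibition above 80% but not taken into the dose series; inactive = below 80% or under 30% at every dose of the series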;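 also: bacteria incubated seven days before Alamar blue readout; 0% = bacteria only wells and 100% = bacteria with antibiotic wells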
YopH inh: blocks Yersinia enterocolitica YopH tyrosine phosphatase | fluorescence Ex485/Em525 | inhibition, %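 (about 10 µM by stock and volumes)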 | 140,000 tested, 0.16% active;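 active = inhibition of 50% or more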;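 also: controls were vehicle for no effect and minimum signal wells for full effect; inactives centre near -20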
RecA intein inh: inhibitors of M. tuberculosis RecA intein splicing | P9WHJ3 | cell-free RecA intein splicing, fluorescence | inhibition, %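 (about 9 µM by stock and volumes)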 | 290,000 tested, 0.75% active; in the data active = inhibition above about 30%; inconclusive = no clear call, values can overlap the other calls;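 also: 0% = vehicle wells and 100% = reference inhibitor control wells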
Target sequence (P9WHJ3 whole entry, looked up): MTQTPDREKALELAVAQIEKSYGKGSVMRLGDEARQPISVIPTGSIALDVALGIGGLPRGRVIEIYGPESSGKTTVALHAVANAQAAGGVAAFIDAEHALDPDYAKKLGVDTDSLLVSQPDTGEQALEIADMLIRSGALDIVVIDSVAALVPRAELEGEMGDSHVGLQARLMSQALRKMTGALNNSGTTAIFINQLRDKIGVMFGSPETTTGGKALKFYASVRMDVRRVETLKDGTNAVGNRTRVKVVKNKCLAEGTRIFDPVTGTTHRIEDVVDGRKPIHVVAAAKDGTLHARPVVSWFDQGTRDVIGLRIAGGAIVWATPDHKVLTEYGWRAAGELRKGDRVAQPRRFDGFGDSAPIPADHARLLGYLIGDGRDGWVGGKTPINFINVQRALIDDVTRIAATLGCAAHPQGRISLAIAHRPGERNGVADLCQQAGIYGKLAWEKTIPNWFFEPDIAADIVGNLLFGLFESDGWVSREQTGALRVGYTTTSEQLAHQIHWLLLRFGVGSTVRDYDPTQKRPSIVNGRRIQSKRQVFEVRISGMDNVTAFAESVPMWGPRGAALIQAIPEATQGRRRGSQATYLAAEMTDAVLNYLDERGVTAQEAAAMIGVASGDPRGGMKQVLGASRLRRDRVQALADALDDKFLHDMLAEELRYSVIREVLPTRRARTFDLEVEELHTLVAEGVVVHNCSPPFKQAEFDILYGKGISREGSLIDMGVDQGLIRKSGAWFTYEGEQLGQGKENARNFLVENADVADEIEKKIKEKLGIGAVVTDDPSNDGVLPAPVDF
Arbovirus inh: antivirals against arbovirus infection; 200,000 tested, 0.37% active; inhibition, % at 10 µM; arbovirus infection cell-based antiviral screen;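 active = inhibition from about 30%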;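 also: bluetongue infection of BSR cells; cell survival read as ATP light after 72 h; 0% = infected wells without compound and 100% = uninfected wells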
Mtb bLac sens: beta-lactam sensitization of Mtb H37Rv. inhibition, % at 25 µM. AID 434955. 330,000 tested, 0.27% active. M. tuberculosis H37Rv growth with meropenem, percent inhibition; hits of this screen are not shown here;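 active = about 74% or more and at least 40 points above the plate without the antibiotic, then above 30% in a dose series; inconclusive = first-round hits that could not be retested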;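 also: growth measured after seven days incubation then overnight dye step; 0% = bacteria only wells and 100% = bacteria with antibiotic; twin plates without the antibiotic show which effects depend on it; some results filed as inactive read as strong as hits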
Arbovirus inh repeat: further read-out of Arbovirus inh, marked with its call; inhibition, %; measured here: 10K subset replicate screen; many hits read low in the repeat;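 first of two repeat runs on a subset; 0% = infected and 100% = uninfected wells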
* hit, by the source's call; ? = inconclusive; . = not tested or not shown; & = joins results of further samples.

SMILES | Mtb growth | YopH inh | RecA intein inh | Arbovirus inh | Mtb bLac sens | others
CCc1nnc(NC(=O)CCC(=O)Nc2ccc(OC)cc2OC)s1 | . | . | -2.8 | . | 2
COc1nc2c(C)cccc2cc1-c1noc(-c2ccco2)n1 | -4% | -6 | . | -12 | -2
CCCCc1nc2n[nH]c(N)c2c2c1CSC(C)(C)C2 | -3% | -19 | 5.1 | 17 | 4
O=C(CCCC(=O)N(CC(=O)NC1CCCC1)c1ccc(F)c(Cl)c1)Nc1ccccn1 | . | . | 1.7 | . | 4
Cc1cc(C)c2c(N)c(C(=O)NCc3ccco3)sc2n1 | -4% | -19 | -3.6 | -2 | -10
Cc1ccc(C)c(S(=O)(=O)Nc2ccc3scnc3c2)c1 | 10% | -34 | -3.3 | 8 | -4
COc1ccc(CNC(=O)C(c2ccc(C)cc2)N(Cc2cccs2)C(=O)c2ccc3c(c2)OCCO3)cc1 (stereo not given) | 5% | -19 | 5.8 | -1 | 15
O=C(c1ccncc1)N1N=C(C2CCCCC2)CC1(O)C(F)(F)F (stereo not given) | 0% | . | . | 11 | 0
Cc1cc(OC(F)F)ccc1NC(=O)Nc1ccc2c(c1)OCO2 | . | . | -2.7 | . | -10
Cc1c(C(=O)OCc2nc3scc(-c4ccccc4)c3c(=O)[nH]2)cccc1[N+](=O)[O-] | -2% | -27 | 1.4 | 15 | -1
Cn1c(N)c(N2CCN(c3ccccc3)CC2)c(=O)[nH]c1=O | -3% | . | -1.1 | 2 | 2
Cc1ccc(SCCC(=O)OCn2nnc3ccccc3c2=O)cc1 | 8% | . | 1.3 | 6 | 64
O=C(CCCN1C(=O)c2ccccc2C1=O)NCc1cccnc1 | -4% | 18 | 0.0 | 6 | -8
CCC1Oc2ccccc2N(CC(=O)Nc2ccc3c(c2)OCCO3)C1=O (stereo not given) | -2% | 21 | -1.2 | 3 | ?
CC1CC(C)CN(CC(=O)N2CCOCC2)C1 (stereo not given) | -6% | . | -1.5 | -3 | -6
O=C(CCSCc1ccccc1Cl)NC1CCCC1 | 3% | -2 | 5.0 | -3 | ?
CCOC(=O)c1c(C)n(-c2ccccc2)c2ccc(O)cc12 | -10% | . | -2.1 | 7 | 39
CCOc1ccc(-n2c(SCC(N)=O)nc3c([nH]c4ccccc43)c2=O)cc1 | 10% | -25 | -1.6 | 12 | -2 | Arbovirus inh repeat=6
O=C(CCC1CCCC1)NCCS(=O)(=O)N1CCN(c2ccccc2)CC1 | . | . | -2.1 | . | -4
CCCc1ccc(C(=O)NNC(=O)c2ccc(Br)cc2)cc1 | -3% | -26 | 0.5 | 3 | 6
Nc1ccc(S(=O)(=O)O)cn1 | -14%&-4%&4% | . | 0.1&-0.1&-1.0 | 23 | 1&-7&2
COc1ccc2c(c1)CCc1c(C(=O)NCc3cccnc3)noc1-2 | . | -26 | -0.5 | -6 | 27
COC(=O)C1=C(C(=O)OC)[C@@H]2N(C)c3ccccc3[C@@]23C[C@@H](C(=O)OC)N=C3N1 | -6% | . | -4.9 | . | -1
ClCC1=Nc2ccccc2Cc2ccccc21 | . | . | 26 | . | -9
CCCCOc1ccc(S(=O)(=O)NNC(=O)C2Cc3c(ccc4ccccc34)O2)cc1 (stereo not given) | -10% | -26 | 3.8 | -1 | 7

Next part:
SMILES | Mtb growth | YopH inh | RecA intein inh | Arbovirus inh | Mtb bLac sens | others
C[C@H](NC(=O)C1CCN(S(=O)(=O)c2ccccc2)CC1)C(=O)NCc1ccc(Cl)cc1Cl | . | . | 0.9 | . | -3
Cc1cccc(NC(=O)CCN2C(=O)c3cccc([N+](=O)[O-])c3C2=O)c1 | . | . | -7.8 | . | -2
COc1ccc(N(CC(=O)N2CCCCCC2)S(=O)(=O)c2ccc(OC)c(OC)c2)cc1 | . | . | -0.2 | . | -4
COc1ccc(-n2c(/C=C/c3cccc(F)c3)nc3ccccc3c2=O)c(OC)c1 | . | . | 1.0 | . | 6
CN(C)C(=O)c1ccc(-c2nnc(NCc3ccccc3)c3ccccc23)cc1 | -1% | -46 | 1.4 | 0 | 8
CCn1c(=O)c2sccc2n(Cc2ccccc2)c1=O | . | . | 2.1 | . | -2
CCOC(=O)N1CCC(n2c(SCC(=O)Nc3ccccc3OC)nc3ccccc3c2=O)CC1 | 5% | -11 | 12 | 6 | 28
O=C(/C=C/c1ccccc1)Nc1ccc(NC(=O)c2cccs2)cc1 | -12% | . | 2.6 | . | -4
CCn1ncc(CN2CCC(Oc3ccc(C(=O)N4CCCC4)cc3)CC2)c1C | . | . | -0.9 | . | -1
Fc1ccccc1OCCSc1nc2ccccc2o1 | 14% | 26 | -0.5 | 6 | -1
COc1cccc(/C=N/Nc2snc(SC)c2C#N)c1 | -6% | 4 | . | 6 | -10
Cc1ccnn1CCC(=O)N1CCCC(Nc2ccc(F)c(F)c2)C1 (stereo not given) | . | . | -2.2 | . | -4
COc1ccc(-c2noc(-c3ccccc3C(=O)NCC3CCCO3)n2)cc1 (stereo not given) | -3% | . | -0.3 | . | 5
FC(F)(F)c1cc(-c2ccco2)nc(NCc2ccccc2)n1 | -7% | -44 | . | -19 | ?
COc1cccc(/C=C2\SC(=S)N(CCC(=O)NNC(=O)c3ccccc3OC)C2=O)c1 | . | . | -2.9 | . | -7
CCOC(=O)NC(=O)COC(=O)CCCc1nc2ccccc2s1 | 22% | . | -1.5 | 27 | -12
O=C(COC(=O)c1ccc(F)cc1F)Nc1ccc2[nH]c(=O)[nH]c2c1 | 1% | . | -1.8 | -2 | 4
CCc1cc2c3c(c(=O)oc2cc1OC(C)C(=O)O)CCCC3 (stereo not given) | . | . | 0.4 | . | 2
CCC(=O)Nc1cc(C)c(OC)c(C)c1 | 15% | . | -1.9 | 1 | -1
Cc1ccc(C2=Nc3ccccc3N=C(c3ccco3)C2)c(O)c1 | -1% | -28 | -7.8 | 5 | 8
CCOC(=O)c1cc2occc2n1CC(=O)Nc1ccc(OC)cc1OC | 5% | -9 | . | -3 | 11
COCCCN1C(=O)C(O)=C(C(C)=O)C1c1cccc(F)c1 (stereo not given) | . | -13 | -0.8 | -3 | -3
CN1C(=O)SC(Nc2ccccc2)C1=O (stereo not given) | -1% | -29 | -3.3 | 2 | -15
Cc1cc(C)cc(Cn2ncc(Cl)c(Cl)c2=O)c1 | ? | -21 | 56* | -43 | 92
COc1ccc(NC(=O)N(C2CCCCC2)C2CCN(C(C)C)CC2)c(OC)c1 | 2% | 13 | -0.5 | 0 | .

(continued)
SMILES | Mtb growth | YopH inh | RecA intein inh | Arbovirus inh | Mtb bLac sens | others
O=C(c1cc2cc(Cl)ccc2oc1=O)N1CCN(c2ccccn2)CC1 | . | . | -0.1 | . | -2
COc1ccc(NCc2nn(CC(=O)c3ccc(Br)cc3)c3[n+]2CCCCC3)cc1 | ? | . | 12 | -12 | 82
COc1ccc(C(=O)NCc2cc(C)nc3ccccc23)cc1 | -12% | . | . | 0 | 10
COC(=O)c1sccc1NC(=O)C12CC3CC(CC(C3)C1)C2 | -6% | -11 | 3.6 | . | ?
O=C(Nc1cccc(NC(=O)c2cccs2)c1)c1ccco1 | -1% | -17 | 2.5 | 64* | -4
CCN(Cc1cc2cccc(C)c2[nH]c1=O)C(=O)c1ccccc1OC | 1% | . | -5.0 | . | -7
CCc1ccccc1NC(=O)CN1CCN(CC(=O)Nc2cc(C)ccc2OC)CC1 | . | . | 0.0 | . | -2
CN(C)c1ccc(C2/C(=C(/O)c3ccc(Br)cc3)C(=O)C(=O)N2C)cc1 (stereo not given) | . | . | -0.4 | . | 33
Cc1ccc2sc(NC(=O)CSc3nc(C)cc(C)c3C#N)nc2c1 | -5% | 6 | -16 | -3 | -4
COc1cc(/C=N/NC(=O)C(=O)N2CCCC2)ccc1O | -8% | -21 | -2.7 | -6 | 11
O=c1cc(N2CCN(Cc3ccccc3)CC2)[nH]c(=O)n1-c1cccc(C(F)(F)F)c1 | -8% | -5 | -4.2 | 2 | -1
CCn1c(SCC(=O)Nc2ccc(NC(=O)c3ccco3)c(OC)c2)nc2ccccc2c1=O | -1% | -23 | -12 | -7 | 11
COc1ccc(S(=O)(=O)N(CC(=O)N/N=C/c2ccccc2C(=O)O)c2ccccc2OC)cc1 | -6% | . | -0.4 | . | -2
CCOC(=O)C1Nc2c(F)cc(C)cc2C2C=CCC12 (stereo not given) | -7% | . | 13 | . | -4
COc1cc(C2CC(=O)NC(SCC(=O)Nc3ccccc3C)=C2C#N)ccc1O (stereo not given) | -8% | -38 | -1.7 | -8 | -5
Cc1ccc2nc(N3CCN(C)CC3)c(C=O)c(=O)n2c1 | . | . | -80 | . | -1
Cc1ccc(-c2nc(N)sc2CC(=O)OCC(=O)N2C(C)CCCC2C)cc1 (stereo not given) | 4% | -15 | -3.5 | 4 | -3
Cc1cnc(C(=O)OCC(=O)Nc2ccc(Cl)cn2)cn1 | . | . | 0.7 | . | -10
COC(=O)N1C(=O)[C@](c2ccsc2)(C(C)C)N1C(=O)OC | . | . | -0.6 | . | 68
CC(NC(=O)CCc1nnc(-c2ccc(-c3ccccc3)cc2)o1)c1nc2ccccc2[nH]1 (stereo not given) | -2% | . | 8.7 | 9 | 9
COC(=O)c1cc(S(=O)(=O)N(C)C2CCCCC2)oc1C | -8% | . | 3.1 | . | 1
O=C(CCc1c[nH]c2ccccc12)N1CCN(c2ccc(O)cc2)CC1 | -5% | . | -12 | -24 | 0
O=C(c1ccco1)N1CCN(C2CC(=O)N(c3ccc4c(c3)OCO4)C2=O)CC1 (stereo not given) | -2% | -19 | -0.6 | 2 | -2
Nc1ccc(-n2ccnc2)cc1 | 41µM* | -46 | 1.4 | 8 | 95
O=C(CSc1nc(O)cc(=O)n1C1CCCC1)Nc1cccc(Cl)c1Cl | 0% | . | 2.7 | 13 | 4

Among those listed so far, these contain a Cl atom:
SMILES | Mtb growth | YopH inh | RecA intein inh | Arbovirus inh | Mtb bLac sens | others
O=C(CCCC(=O)N(CC(=O)NC1CCCC1)c1ccc(F)c(Cl)c1)Nc1ccccn1 | . | . | 1.7 | . | 4
O=C(CCSCc1ccccc1Cl)NC1CCCC1 | 3% | -2 | 5.0 | -3 | ?
ClCC1=Nc2ccccc2Cc2ccccc21 | . | . | 26 | . | -9
C[C@H](NC(=O)C1CCN(S(=O)(=O)c2ccccc2)CC1)C(=O)NCc1ccc(Cl)cc1Cl | . | . | 0.9 | . | -3
Cc1cc(C)cc(Cn2ncc(Cl)c(Cl)c2=O)c1 | ? | -21 | 56* | -43 | 92
O=C(c1cc2cc(Cl)ccc2oc1=O)N1CCN(c2ccccn2)CC1 | . | . | -0.1 | . | -2
Cc1cnc(C(=O)OCC(=O)Nc2ccc(Cl)cn2)cn1 | . | . | 0.7 | . | -10
O=C(CSc1nc(O)cc(=O)n1C1CCCC1)Nc1cccc(Cl)c1Cl | 0% | . | 2.7 | 13 | 4

Next part.
SMILES | Mtb growth | YopH inh | RecA intein inh | Arbovirus inh | Mtb bLac sens | others
Cc1ccc(C(=O)N/C(=C/c2ccc(-c3cccc([N+](=O)[O-])c3)o2)C(=O)NCCCN(C)C)cc1 | 8% | . | 7.6 | -34 | -4
CCOc1ccc(-c2c(C(=O)N/N=C(\C)c3ccco3)nnn2-c2nonc2N)cc1 | . | . | -4.5 | . | 2
Cc1cc(C)c(C(=O)CSc2nc(C)cc(C)c2C(N)=O)c(C)c1 | 4% | -8 | -2.5 | -20 | 3
CCc1nnc(NC(=O)CCC(=O)NC2CCCC2)s1 | . | . | -1.7 | . | -9
CCOC(=O)CSc1nnc(-c2ccco2)n1C | 0% | -6 | -2.5 | -2 | .
O=C(O)C1CC=CCC1C(=O)NCCc1ccccc1 (stereo not given) | -3% | -28 | 1.8 | 10 | 44
Cc1cc(C)c(C)c(S(=O)(=O)N2CCC(C(=O)N3CC(C)CC(C)C3)CC2)c1C (stereo not given) | . | . | 0.8 | . | -12
CN(C)c1ccc(C2C3=C(CCCC3=O)OC3=C2C(=O)CCC3)cc1 | 0% | -5 | -1.5 | 6 | -17
O=C(COc1ccc2c(c1)C(=O)CC1(CCCCC1)O2)NCc1ccccc1 | -23% | 5 | -0.3 | -6 | -1
CCc1ccc(-c2ccc(C(=O)O)c(C)n2)cc1 | 2% | -2 | -2.0 | 3 | 0
COc1ccc(-c2nc3ccccc3c(=O)n2NC(=S)N(C)C)cc1 | 3% | -20 | 0.5 | -8 | 8
O=C(Cc1ccccc1)NCC(=O)N1CCc2ccccc2C1 | . | . | 0.8 | . | -3
COc1ccc(NC(=S)N(Cc2cccc(Br)c2)CC2CCC(C(=O)O)CC2)cc1 (stereo not given) | 2% | . | -7.2 | 14 | 18
Cc1cccc(C(=O)NCCN2CCCC2)c1 | 0% | -20 | -3.1 | 4 | -21
CCOC(=O)CCNC(=O)Nc1ccc2nc(C)n(Cc3ccccc3Cl)c(=O)c2c1 | 1% | -9 | 0.0 | 4 | -2
OCCC1CN(Cc2ccc(F)cc2)CCN1CCCc1ccccc1 (stereo not given) | . | . | -1.2 | . | 0

Only part of the results is shown. The share of hits here may be higher or lower than overall.
